High-throughput results deposited in PubChem by several laboratories.
BJeLR lethal: kills HRASV12-expressing BJeLR cells; AID 1554; inhibition, % (concentration not given with the values); BJeLR (HRASV12) viability, CellTiter-Glo ATP luminescence, 48 h; reference of the scale not given here; hit rate 0.17% among 300,000;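 active = replicate mean above 50%; inconclusive = above 50% but judged a plate artefact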;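 also: 50 nL library stock added to about 25 µL; numbers are from one replicate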
Bead autofluor: flagged as autofluorescent in microsphere protease counterscreen; compound autofluorescence counterscreen, microsphere flow cytometry; stronger effect = higher value; fluorescence intensity (no concentration beside the values); hit rate 3.1% among 360,000; AID 624483;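 active = at least 3 SD above the mean of all compounds, about 16000 in these data; inconclusive = too few beads counted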;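 also: 100 nL of 1 mM stock went into each well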
ugtP null kill: compounds lethal to S. aureus RN4220 ugtP deletion mutant; growth inhibition, % (test concentration not listed); OD600 growth, 16 h; some inactives read as strong as hits; AID 1259309; hit rate 0.54% among 330,000;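 active = z-score under -3 and OD600 up to 0.15 on both plates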;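 also: plate controls were untreated wells for no effect and antibiotic for full effect; wells of about 80 µL received 100 nL stock; the first replicate is given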
PrP UTR inh: inhibition of PrP 5' UTR reporter expression; hit rate 0.35% among 340,000; inhibition, % (concentration not given with the values); cell-based PrP 5' UTR mRNA reporter, plate reader; AID 488862;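 active = every replicate at 50% or more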;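 also: 0 = median of the neutral control wells; tested in H4 reporter cells; numbers are from one replicate; inactives centre near -14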
Sa RN4220 lethal: S. aureus RN4220 growth inhibition. inhibition, % (test concentration not listed). OD600, 16 h. AID 1259311. hit rate 0.33% among 330,000;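 active = z-score of -3 or lower and OD600 up to 0.18 on both plates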;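 also: plate controls were untreated cells for no effect and reference antibiotic for full effect; stock transfer was 100 nL into about 80 µL; one replicate is shown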
Mtb hypoxia inh: reduces hypoxia-regulated biosensor signal in M. tuberculosis; M. tuberculosis hypoxia-regulated fluorescent reporter, fluorescence; fluorescence inhibition, % (concentration not given with the values); hit rate 0.1% among 300,000;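 active = 35 to 45% if threefold the growth effect, above 45% if 1.5-fold the growth effect; inactive = the rest, general growth blockers included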;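 also: wells of about 50 µL received 100 nL stock; 0% = vehicle wells and 100% = reference inhibitor wells; whole bacteria with a GFP reporter of the hypoxia response; strong numbers were not always called active; many hits fall short of the cut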
Mtb hypoxia inh growth: also measured in Mtb hypoxia inh; calls as there; growth inhibition, %; measured here: M. tuberculosis growth (absorbance);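 0% = vehicle and 100% = reference antibiotic; read after six days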
* hit, by the source's call; ? = inconclusive; nt = not tested or not shown. Compounds were not picked by outcome (roughly 4% active in at least one column).

SMILES | BJeLR lethal | Bead autofluor | ugtP null kill | PrP UTR inh | Sa RN4220 lethal | Mtb hypoxia inh | Mtb hypoxia inh growth
C=CCNC(=O)CCCCCNS(=O)(=O)c1ccc(OC)cc1 | 1 | 23119* | -4 | -12 | 0.4 | 7 | 5
CCOc1ccc(Oc2ccccc2NS(=O)(=O)c2ccc(CCC(=O)O)cc2)cc1 | nt | 3650 | 17 | -24 | 11 | -3 | -3
CCCCOc1cccc(C2/C(=C(/O)c3ccc4c(c3)CC(C)O4)C(=O)C(=O)N2CCN2CCOCC2)c1 (configuration not stated) | -1 | ? | 0 | -17 | 12 | 5 | -4
O=C(NC1CCCCC1)c1ccc2snnc2c1 | 5 | 5438 | 11 | -14 | 0.2 | nt | nt
O=C(Cn1cnc2ccccc2c1=O)NCC(=O)N1CCC2(CC1)OCCO2 | -9 | 2633 | 5 | -22 | 0.1 | nt | nt
O=C(NCc1cccs1)C1CCN(S(=O)(=O)c2cccc([N+](=O)[O-])c2)CC1 | 7 | 4123 | -2 | -30 | 2.2 | 0 | -6
CCN(CC(=O)Nc1ccccc1C(F)(F)F)C(=O)C1=COCCO1 | -22 | 5301 | -3 | -5 | -1.8 | -8 | 3
CCCc1c(C)[nH]c2ccccc2c1=O | -12 | ? | 4 | -15 | 5.4 | 3 | -3
Cn1c(SCC(=O)NCc2ccccc2)ncc(C(=O)Nc2ccccc2)c1=O | 4 | 5410 | 3 | -19 | -5.2 | -8 | -5
COc1ccc(CN(C(=O)/C=C/C(=O)c2ccc(OC)cc2O)C(C(=O)NC2CCCCC2)c2ccncc2)cc1 (configuration not stated) | -9 | 8649 | 8 | -39 | 2.6 | 3 | 3

Whole records, looked up by structure. Order of screens: BJeLR lethal | Bead autofluor | ugtP null kill | PrP UTR inh | Sa RN4220 lethal | Mtb hypoxia inh | Mtb hypoxia inh growth
O=C(NC1CCCCC1)c1ccc2snnc2c1 is listed as 5 | 5438 | 11 | -14 | 0.2 | nt | nt
C=CCNC(=O)CCCCCNS(=O)(=O)c1ccc(OC)cc1 is listed as 1 | 23119* | -4 | -12 | 0.4 | 7 | 5
CCN(CC(=O)Nc1ccccc1C(F)(F)F)C(=O)C1=COCCO1 is listed as -22 | 5301 | -3 | -5 | -1.8 | -8 | 3
COc1ccc(CN(C(=O)/C=C/C(=O)c2ccc(OC)cc2O)C(C(=O)NC2CCCCC2)c2ccncc2)cc1 (configuration not stated) is listed as -9 | 8649 | 8 | -39 | 2.6 | 3 | 3
CCCCOc1cccc(C2/C(=C(/O)c3ccc4c(c3)CC(C)O4)C(=O)C(=O)N2CCN2CCOCC2)c1 (configuration not stated) is listed as -1 | ? | 0 | -17 | 12 | 5 | -4

Additional results.
SMILES | BJeLR lethal | Bead autofluor | ugtP null kill | PrP UTR inh | Sa RN4220 lethal | Mtb hypoxia inh | Mtb hypoxia inh growth
Cc1cc(C)n(C(=O)CN2C(=O)CCC2=O)n1 | -2 | 2518 | -3 | -21 | 1.3 | nt | nt
COc1ccccc1N(CC(=O)N/N=C/c1ccc(OCC(=O)NCc2ccco2)cc1)S(=O)(=O)c1ccc(C)cc1 | 5 | 2855 | nt | -19 | nt | nt | nt
CC(C)c1nc2cc(C(=O)N3CCN(c4cnccn4)CC3)ccc2o1 | 4 | 5348 | 3 | -10 | 1.1 | 7 | 7
CC(C)c1ccc(C2c3[nH]c4ccccc4c3C[C@H]3C(=O)N(c4ccccc4C(=O)N4CCC[C@@H]4C(=O)O)C(=O)N23)cc1 (some centres not stated) | 6 | 5584 | 10 | -8 | 3.1 | nt | nt
CCOC(=O)N1CCN(S(=O)(=O)c2ccc(OCC(=O)OC)c(Cl)c2)CC1 | -2 | 8792 | 2 | 2 | 3.6 | 12 | 4
Cc1ccc(NC(=O)N2CCCN(C(=O)OC(C)(C)C)CC2)cc1Cl | -1 | 3034 | 4 | -18 | 0.2 | 9 | -10
COc1ccc(CN=Cc2c(O)[nH]c3ccccc23)cc1 | -1 | 4762 | -7 | -27 | 5.4 | 4 | 6
COc1ccc2c(c1)c(C(=O)OCCN(C)C)c(C)n2C | 9 | 4688 | -7 | -10 | -1.4 | nt | nt
CCn1cc(S(=O)(=O)Nc2ccc(C)c(Cl)c2)cn1 | 9 | 5674 | 3 | -25 | 4.7 | 11 | 7
N#CCSc1nnc2sc3ccccc3n12 | 14 | 5072 | 4 | -17 | 2.1 | 3 | 5
O=C(Oc1cccc(Nc2ncnc3ccccc23)c1)c1cccnc1 | 8 | 4514 | 0 | -45 | 2.3 | 11 | 5
COc1ccccc1CCN=C(N)NS(=O)(=O)c1cc(F)ccc1F | 8 | ? | -2 | -8 | 3.0 | 5 | 14
COc1ccc(NC(=O)NNC(=O)CCc2ccc(O)c(O)c2)cc1OC | -7 | ? | nt | 2 | nt | nt | nt
COc1ccc(CN2CCN(CCc3ccccc3)C(CCO)C2)c(O)c1 (configuration not stated) | 1 | 4592 | 4 | -14 | -2.5 | -4 | 12
COc1ccc(N2CCN(c3ccc(C(=O)O)cc3[N+](=O)[O-])CC2)cc1 | 9 | 2960 | 9 | -14 | 4.5 | -5 | -5
Cc1cc(CNC(=O)C2CCC(=O)N(Cc3ccccc3F)C2)nn1C (configuration not stated) | 13 | 5871 | 4 | -4 | 3.1 | 1 | 2
CN(C)N1C(N)=C(C#N)C(c2cccs2)C2=C1CCCC2=O (configuration not stated) | -6 | 3636 | -7 | -11 | -1.8 | -7 | -7
CC(=O)Nc1ccc(Sc2ccccc2C(=O)O)cn1 | 1 | 3045 | 8 | -22 | 1.0 | -1 | -6
O=C(NCC1CCCO1)c1ccc([N+](=O)[O-])s1 (configuration not stated) | -4 | 3299 | 15 | -21 | 22 | 1 | 5
Cc1nnc(SCc2ccc(F)cc2Cl)s1 | 4 | 19791* | 8 | -85 | 8.1 | 2 | -2
COc1cc(OC)cc(C(=O)Nn2c(C)nc3ccccc3c2=O)c1 | 9 | 4406 | 2 | -15 | -1.3 | nt | nt
CCOc1ccc(CN(C)C(=O)c2ccc(NC(=O)CC3SC(N4CCCC4)=NC3=O)cc2)cc1 (configuration not stated) | -2 | 4084 | 11 | -2 | 6.0 | 5 | 4
CCc1ccc(CN(Cc2cccnc2)C(=O)/C=C/c2ccc(OC)cc2)cc1 | 1 | 7958 | 5 | -11 | 4.2 | 2 | 2
CCOC(=O)C1C(=O)NC(N2CCCCC2)=NC1c1ccco1 (configuration not stated) | -6 | 3808 | 4 | 0 | 4.9 | nt | nt
CC(C)Sc1nnc(NC(=O)c2ccco2)s1 | -19 | 4073 | 7 | -40 | 10 | 6 | 5
CCn1cc(CN(C)S(=O)(=O)c2cccc([N+](=O)[O-])c2)cn1 | 9 | 5234 | 7 | -24 | 1.6 | 8 | 11
Cc1cccnc1NCC(O)COc1ccccc1 (configuration not stated) | -6 | 4184 | -7 | -6 | 6.0 | 4 | -2
Cc1ccc(OCC(=O)NC(C)c2ccc(Cl)c(Cl)c2)c([N+](=O)[O-])n1 (configuration not stated) | 2 | 5780 | 12 | -2 | -5.5 | -2 | 8
CSc1ccccc1NC(=O)CN(C)Cc1cc(=O)n2ccsc2n1 | 3 | 4367 | 1 | -8 | 3.7 | 2 | -5
N#Cc1cc([N+](=O)[O-])ccc1NCCc1ccccn1 | 10 | 3993 | 3 | -15 | 0.4 | 2 | 9
Cc1cc(NC(=O)c2ccccc2[N+](=O)[O-])ccc1Br | 7 | 3671 | -7 | -14 | -0.7 | 0 | 5
CCOC(=O)c1sc(NC(=S)NC(=O)C2CCCC2)cc1C | 0 | 2580 | -10 | -3 | 1.1 | 8 | 15
O=C(Cc1ccc(F)cc1)NC1CCS(=O)(=O)C1 (configuration not stated) | 13 | 5837 | 1 | -7 | 2.8 | 1 | 14
CC(O)C(NS(=O)(=O)c1ccc(Cl)cc1)C(=O)OCC(=O)c1ccc2c(c1)NC(=O)CO2 (configuration not stated) | nt | 6971 | 4 | -9 | 3.8 | 7 | 3
O=C(NC1CCCC1)C(c1ccc(F)cc1)N(Cc1ccc(F)cc1)C(=O)c1ccn[nH]1 (configuration not stated) | -4 | 7760 | -7 | -21 | 2.8 | 0 | 0
CC[N+]1(CC)CC2=Cc3c(ccc4ccccc34)C(C)C2C1 (configuration not stated) | -6 | 3114 | 7 | -19 | 3.6 | 10 | 1
O=C1CSC(c2cccc(Cl)c2Cl)N1c1ccccn1 (configuration not stated) | 2 | 2015 | -10 | -2 | -2.9 | 13 | 5
O=C(Nc1ccccc1C(=O)Nc1ccc(Br)cn1)c1ccccc1Cl | nt | 6639 | 8 | -16 | 1.9 | 11 | 0
COc1ccccc1C(=O)NNC(=S)NC(=O)c1cccs1 | 7 | 4417 | nt | 7 | nt | nt | nt
COC(=O)Cc1c(CSc2ccccc2)oc2ccc(O)c(CN(C)C)c12 | -3 | 4117 | 18 | -20 | 1.3 | 0 | 3
CN(C)C(=O)Oc1ccc2c(c1)O/C(=C\c1cccc(Cl)c1)C2=O | -9 | 4309 | 0 | -19 | 5.1 | 0 | -3
O=C(NCc1nc2ccccc2[nH]1)C1=C[C@H](c2ccc3c(c2)OCO3)C[C@H](OCc2ccc(CO)cc2)O1 | -14 | 2898 | nt | -13 | nt | nt | nt
COc1ccc(CCNc2ccc(S(=O)(=O)N3CCCC3)cc2[N+](=O)[O-])cc1 | 8 | 7922 | nt | 5 | nt | nt | nt
CCOc1ccc(-n2ccnc(SCC(=O)Nc3ccc(OC)cc3OC)c2=O)cc1 | -10 | ? | -1 | -14 | -7.5 | -1 | -2
COc1cc(OC)c(NC(=O)c2csc(C)c2)cc1Cl | -12 | 5751 | 4 | -6 | 1.9 | 1 | 13
O=C(Cc1cccs1)N/N=C\c1ccc(O)cc1 | -6 | 2062 | nt | -32 | nt | nt | nt
C=CCNC(=S)N/N=C/c1ccc(-c2ccc(OC)cc2)o1 | 9 | 3241 | nt | -25 | nt | nt | nt
O=C(OCC(=O)N1c2ccccc2Sc2ccccc21)C1CC(=O)N(Cc2ccco2)C1 (configuration not stated) | -6 | 11591 | 6 | -8 | 0.8 | 6 | 8
CC(C)COC(=O)NCCOC(=O)Nc1cccc(Cl)c1 | 4 | 2766 | 4 | -13 | -1.9 | nt | nt
CC(=O)O[C@]1(C(C)=O)CCC2C3C=C(Cl)C4=CC(=O)CC[C@]4(C)C3CC[C@@]21C (some centres not stated) | nt | nt | -8 | nt | 3.9 | 0 | 4
(listing goes on)
SMILES | BJeLR lethal | Bead autofluor | ugtP null kill | PrP UTR inh | Sa RN4220 lethal | Mtb hypoxia inh | Mtb hypoxia inh growth
COc1cccc2c1C(=O)C[C@]1(CCCC[C@@H]1C)O2 | -2 | 3984 | nt | -12 | nt | nt | nt
CCOC(=O)c1c(CSc2ccccc2)oc2ccc(O)cc12 | 11 | 2159 | 34 | -12 | -1.9 | 3 | 11
CCN(CC)C(=O)C1CC(c2ccc(OC)cc2)=NO1 (configuration not stated) | -2 | 20968* | 2 | -23 | 0.8 | 7 | 9
Cc1cc(=O)n2[nH]c(NCc3ccccc3F)nc2n1 | 1 | 3881 | 3 | -21 | 5.5 | 4 | -6
COc1ccc(C=O)cc1CN1CCCN(Cc2ccc(Cl)cc2)S1(=O)=O | -1 | 3655 | 12 | -12 | 2.2 | 1 | 8
COCCCNC(=O)CC(NS(=O)(=O)c1ccc(C)cc1)c1ccc(OC)cc1 (configuration not stated) | -2 | 10970 | 8 | -15 | 2.3 | 8 | 6
O=C(CSc1nnc(-c2cccnc2)o1)Nc1ccccc1Br | -8 | 3736 | 17 | -8 | 1.6 | 7 | 15
N#CC1=C(Nc2ccc(Br)cc2)CCC1 | -7 | 16939* | 4 | -11 | 6.2 | 8 | -4
COc1ccccc1NC(=O)CCc1nc(-c2ccccc2F)no1 | 5 | 5186 | 4 | -16 | 9.8 | -1 | 2
COc1ccc(-c2nc3nc(C)cc(C)n3n2)cc1 | -2 | 3777 | 4 | -38 | 6.7 | 6 | -2
COc1ccc(-c2csc3nc(C)nc(N4CCN(c5ccc(C(C)=O)cc5)CC4)c23)cc1OC | 4 | 3958 | 1 | -5 | -1.5 | 2 | 2
Cc1nc2c(C(=O)NCc3ccccc3)c[nH]n2c(=O)c1Cl | -5 | 20750* | 7 | -5 | 5.1 | 4 | 4
COCC(=O)NC(c1ccccc1)c1ccccc1 | 1 | 3783 | -11 | -27 | 2.8 | 7 | 5
C/C(=N\NS(=O)(=O)c1ccc([N+](=O)[O-])cc1)c1cccs1 | 2 | 2551 | nt | -9 | nt | nt | nt
CCN(CC)c1nc(-c2ccccc2)nc2ccccc12 | -3 | 3695 | 59 | -12 | -1.3 | 13 | 21
